From PubChem BioAssay
VDR inh: Inhibitors of the vitamin D receptor (VDR): qHTS. VDR-SRC2-3 peptide fluorescence polarization, 2 h. Potency, µM, inactives show max response, negative = inhibition, hits mostly inhibitors. 400,000 compounds, 0.93% hits. AID 504847, 2011; active = well fitted inhibition curve with a large enough effect; inconclusive = small, poorly fitted or top-dose-only effect, or another doubt; inactive = no such curve, though single readings can be large or run the other way; note: series mostly up to about 120 µM
Target sequence (P11473 whole entry, looked up): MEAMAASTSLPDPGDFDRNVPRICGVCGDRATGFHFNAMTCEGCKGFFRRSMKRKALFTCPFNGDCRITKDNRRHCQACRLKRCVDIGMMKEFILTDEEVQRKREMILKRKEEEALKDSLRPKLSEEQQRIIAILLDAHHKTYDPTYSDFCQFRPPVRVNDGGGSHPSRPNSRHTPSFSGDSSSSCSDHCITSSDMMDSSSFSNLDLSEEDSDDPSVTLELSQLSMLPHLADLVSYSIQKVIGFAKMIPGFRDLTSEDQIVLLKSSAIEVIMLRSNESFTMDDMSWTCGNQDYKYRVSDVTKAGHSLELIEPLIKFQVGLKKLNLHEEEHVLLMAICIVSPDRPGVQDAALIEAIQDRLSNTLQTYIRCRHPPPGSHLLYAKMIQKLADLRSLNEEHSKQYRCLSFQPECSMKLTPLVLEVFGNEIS
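Fluorescence polarization assay of small-molecule disruption of VDR binding to coregulator peptide SRC2-3. Compounds and controls pin-transferred, then read after 2 h incubation at ambient room temperature.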
An asterisk follows results filed as active; ? = inconclusive. % is set by controls: 0 for no effect and ±100 for the full control effect; potency is the fitted concentration of half-maximal effect. Only part of the results is shown, so the mix of outcomes need not match the whole.

SMILES	VDR inh
NC(=O)c1cc(S(=O)(=O)N2CCN(c3cccc(C(F)(F)F)c3)CC2)cs1	8%
Cc1cc(NC(=O)c2cc(-c3cccnc3)nc3c(C)c(C)ccc23)no1	-15%
CCCCc1ccc(NC(=O)CC(C)(C)C)cc1	6%
C/C(=C\C(=O)c1ccc(Br)cc1)NNC(=O)c1ccccc1	3%
Cc1ccccc1N(C(=O)CNC(=O)c1ccco1)C(C(=O)NC1CCCCC1)c1cccnc1 (stereo not drawn)	5%
CCc1nnc(NC(=O)CSc2nc(-c3ccccc3)nc3ccccc23)s1	-26%
Cc1cc(Br)ccc1NC(=O)CSc1nnc(CN2CCOCC2)n1C	0%
NC(=O)NC(=O)CSc1nc(C2CCCCC2)n(-c2ccccc2)n1	7%
Cc1cccc(N2CCN(C(=O)Cn3ccc4ccccc4c3=O)CC2)c1C	6%
Nc1c([N+](=O)[O-])c(=O)oc2ccccc12	-5%
COc1cccc(NC(=O)N2CCCC2C(=O)Nc2ccc3c(c2)OCO3)c1 (stereo not drawn)	1%
Cc1cccc(NC(=S)NC(C)(C)CC(C)(C)C)c1	-12%
CCCCC(CCC(=O)O)(C(=O)OCC)c1csc(Nc2ccc(OCC)cc2)n1 (stereo not drawn)	-14%
CC1(C)C(C=C(Cl)Cl)C1C(=O)N(Cc1cccc(Cl)c1)C1CCS(=O)(=O)C1 (stereo not drawn)	-20%
CC(C)c1ccccc1OCC(=O)NC1CCCc2ccccc21 (stereo not drawn)	-1%
CC(=O)c1cc(C)ccc1OC(=O)CN1C(=O)c2ccccc2C1=O	-21%
CCS(=O)(=O)N1CCC(C(=O)NC2CCCCC2)CC1	-14%
Cc1cc(=O)[nH]c(SCc2csc(-c3ccccc3)n2)n1	10%
C=CCc1cccc(CNc2nc3ccccc3n2CC)c1O	4%
Cc1ccnc(N/C=C(/NC(=O)c2ccccc2)C(=O)NN)n1	-8%
CN(C(=O)COC(=O)c1cncc(Br)c1)C1CCCCC1	-11%
CCOC(=O)N1CCC(NC(=O)CC2C(=O)NCCN2Cc2ccccc2F)CC1 (stereo not drawn)	-5%
C=CCn1cnc2c(c1=O)c1nc3ccccc3nc1n2/N=C/c1cc(OC)c(OC)c(OC)c1	9%
COc1ccccc1-n1c(SCC(=O)NCC2CCCO2)nc2c([nH]c3ccccc32)c1=O (stereo not drawn)	-11%
COc1ncc2nc(-c3cc(F)cc(F)c3)c(=O)n(-c3ccccc3)c2n1	-3%
O=C(O)c1ccc(N2CCN(Cc3ccc4c(c3)OCO4)CC2)c([N+](=O)[O-])c1	-15%
Cc1ccccc1CN1CCN(Cc2cc(=O)c3ccccc3[nH]2)CC1CCO (stereo not drawn)	-13%
CCOc1ccc(OCC(=O)OCC(=O)Nc2ccccc2C#N)cc1	2%
COc1cc2c(C(=O)Nc3ccccc3F)cn(C)c(=O)c2cc1OC	14%
Cc1ccc2c(c1)n([O-])c1c([n+]2=O)CCCC1	-9%
COCCN(C(=O)CSc1nnc(-c2ccccc2F)n1C)c1c(N)n(Cc2ccccc2)c(=O)[nH]c1=O	-1%
Cc1cc(Cl)c(S(=O)(=O)NCCC(=O)O)cc1OCC(N)=O	8%
CCNCC(=O)Nc1c(C)cccc1C	20%
Cc1ccc(CN2CC(C(=O)Nc3ccc(S(=O)(=O)Nc4cc(C)nc(C)n4)cc3)CC2=O)cc1 (stereo not drawn)	0%
CS(=O)(=O)N1CCN(C(=O)c2ccc(Cl)s2)CC1	-19%
O=C(COC(=O)Cn1cnc2ccccc2c1=O)Nc1ccccc1Sc1ccc(Cl)cc1	-3%
CCS(=O)(=O)c1oc(-c2ccc(F)cc2)nc1S(=O)(=O)c1ccc(Br)cc1	?
CCc1ccc(C2=NN(C(=O)OC)C(O)(C(F)(F)F)C2)cc1 (stereo not drawn)	2%
COc1cc(NC(=S)N2CCN(S(=O)(=O)c3ccc(F)cc3)CC2)cc(OC)c1	5%
Cc1ccc(Sc2nc3ccc(C)cn3c(=O)c2/C=N/O)cc1	-4%
CS(=O)(=O)N1CC(C(=O)NC2CC2)Oc2ccc(Cl)cc21 (stereo not drawn)	-21%
O=C(Nc1cccnc1)c1cc(-c2ccc(Br)cc2)nc2ccccc12	8%
CN(C)CCCN(C(=O)c1ccc(S(=O)(=O)N2CCCC2)cc1)c1nc2c(F)cc(F)cc2s1	13%
CCc1n[nH]c(=S)n1/N=C/c1ccccc1OCc1ccc(Cl)cc1	-11%
COc1ccc(CNC(=O)C2CCN(S(=O)(=O)c3cccnc3)CC2)cc1	-7%
CC(NC(=O)c1ccc(S(=O)(=O)Nc2ccccc2Cl)cc1)c1ccncc1 (stereo not drawn)	0%
CC(C)N1CCN(Cc2ccc(Sc3nncn3C)o2)CC1CCO (stereo not drawn)	0%
O=C1NC2(CCCC2)N=C1c1ccc(Cl)cc1	4%
Nc1nnc(SCC(=O)OCc2ccccc2)s1	11%
O=C1CS/C(=N/N=C/c2ccncc2)N1	-1%
O=c1c2ccccc2cnn1CCOc1cccc(Br)c1	4%
O=C(NCCc1ccccc1)C(=O)NCC(c1cccnc1)N1CCN(c2ccccc2)CC1 (stereo not drawn)	-6%
CCOC(=O)c1sc(=S)n(C)c1NC(=O)c1ccccc1Cl	?
COC(=O)c1sc(C(=O)OC)c(C(=O)OC)c1C(=O)OC	-3%
COc1cc2c(cc1OC)CN(C(C)C(=O)Nc1ccc(NC(C)=O)cc1)CC2 (stereo not drawn)	-16%
CCN(CC)C(=O)CCn1nc(-c2ccc(C)cc2)c2ccccc2c1=O	-20%
COCCOC(=O)c1c(C)oc2ccc(NS(=O)(=O)c3ccc(C)cc3)cc12	?
CCc1ccccc1NC(=O)N1CCOc2ccccc21	0%
Cc1sc2ncnc(N(C)Cc3ccco3)c2c1C	-6%
CCOC(=O)C(Cc1ccccc1)C(=O)Nc1ccc(NC(=O)C(Cc2ccccc2)C(=O)OCC)cc1 (stereo not drawn)	-6%

(cont.)
SMILES	VDR inh
COC(=O)c1ccc(NC(=O)Cn2nc(SC)n(N)c2=S)cc1	5%
Cc1ccc2c(c1)nnn2C1CCN(C(=O)c2cccs2)CC1	-14%
O=c1oc2ccccc2cc1-c1nc2ccccc2o1	3%
COC(=O)c1cc(S(=O)(=O)N2CCN(c3ccc(C(C)=O)cc3)CC2)cn1C	-18%
CC(C(=O)Nc1ccc2c(c1)OCO2)N1CCN(C)CC1 (stereo not drawn)	-14%
COc1cc2c(cc1OC)C(c1ccccc1)N(C(=O)C(C)(C)C)CC2 (stereo not drawn)	14%
Cc1ccc(C2CC(=O)Nc3cc4c(cc32)OCO4)o1 (stereo not drawn)	-2%
NC(=O)c1ccc(Cc2ncc(C(F)(F)F)cc2Cl)s1	2%
NS(=O)(=O)c1ccc(CCNC(=O)CCCn2ncn3c(cc4occc43)c2=O)cc1	-7%
O=C(COc1ccc2ccccc2c1Br)NNC(=O)Nc1ccccc1	-5%
CCOC(=O)COc1ccc(C(=O)NC2CCCCC2)cc1	14%
CC(=O)Nc1cc(C(=O)NCc2ccc(C)cc2)ccc1S(=O)(=O)c1ccc(Cl)cc1	9%
Cc1ccc(CSc2ccc3nnc(-c4cccnc4)n3n2)cc1	-9%
O=C(CSc1nnnn1-c1ccc(Cl)cc1)N1CCc2ccccc2C1	-11%
Cc1ccc(C(C2=C(O)CC(C)(C)CC2=O)C2C(=O)CC(C)(C)CC2=O)o1 (stereo not drawn)	50µM*
O=C(O)c1ccc(S(=O)(=O)c2ccc3c(c2)C(=O)N(Cc2ccco2)C3=O)cc1	-9%
Cc1cc(NC(=O)CSc2n[nH]c(CC(C)C)n2)no1	21%
O=C1c2ccccc2C(O)N1Cc1ccco1 (stereo not drawn)	-16%
CC(=O)c1sc2nc(-c3cccs3)cc(C(F)(F)F)c2c1N	6%
COc1ccc(N2C(=O)CSC23CCCCC3)cc1	2%
Cc1cccc(NC(=O)C2CCN(S(=O)(=O)c3c(C)nn(C)c3C)CC2)n1	1%
COCCOC(=O)c1c(NC(=O)COC(=O)Cc2cccc(OC)c2)sc(C(N)=O)c1C	0%
CSc1cccc(NC(=O)CCCOc2ccc(Cl)cc2C)c1	17%
COc1ccccc1C(=O)NC(CCSC)C(=O)OC(C)C(N)=O (stereo not drawn)	10%
O=C(CSc1nccc(=O)[nH]1)Nc1ccc(F)c(Cl)c1	-12%
CCc1cccc(C)c1NC(=O)CSc1nnc(-c2ccco2)n1N	-3%
CCN1CCN(S(=O)(=O)c2cc(OCC(=O)NC3CCCCC3)c(C)cc2Cl)CC1	-17%
COc1ccc(/C=C2\SC(=O)N(CCC(=O)Nc3ccc(S(=O)(=O)Nc4nccs4)cc3)C2=O)cc1	2%
Cc1c(Cl)cccc1NC(=O)CCS(=O)(=O)c1cccc2nsnc12	-18%
CC1(C)C(=O)NC2=C1C(=O)C(=O)c1ccccc12	45µM*
COc1ccc(-n2cc(-c3ccc4c(c3)OCO4)n(CC(=O)Nc3cccc(C)c3)c2=O)cc1	2%
Cc1ccc(NC(=O)CC2S/C(=N/c3nccs3)N(C)C2=O)c(C)c1 (stereo not drawn)	2%
O=C1NCC(COc2ccc([N+](=O)[O-])cc2)O1 (stereo not drawn)	-3%
CCOC(=O)c1c(S(=O)(=O)NCC(=O)Nc2cccc(SC)c2)c(C)n(C)c1C	1%
COC(=O)c1ccccc1N(C)S(C)(=O)=O	-3%
CCOC(=O)C1CCN(c2c(NCCCN3CCCCC3)c(=O)c2=O)CC1	-2%

The last two entries of the part above lead into the next:
SMILES	VDR inh
COC(=O)c1ccccc1N(C)S(C)(=O)=O	-3%
CCOC(=O)C1CCN(c2c(NCCCN3CCCCC3)c(=O)c2=O)CC1	-2%
O=P(OC1CCCCC1)(OC1CCCCC1)C(O)c1ccc(Cl)cc1Cl (stereo not drawn)	-23%
CS(=O)(=O)N(CC(=O)N1CCN(c2cccc(Cl)c2)CC1)c1cccc(F)c1	6%
O=C(Nc1nc2c(s1)CN(Cc1ccccc1)CC2)c1cccc(S(=O)(=O)N2CCc3ccccc32)c1	13%
CCOC(=O)CSc1nc2cc(OC)c(OC)cc2cc1C#N	-6%
O=C(CCc1ccccc1)Nc1ccc(S(=O)(=O)NC2=NCCCCC2)cc1	-11%
Cc1ccc(CO)cc1Nc1ncnc2onc(-c3ccc(F)cc3)c12	3%
CC(C)Cc1nc2oc3c(N4CCN(CCO)CC4)ncnc3c2c2c1CCCC2	10%
CN(C)c1ccc2c3c(ccc(N(C)C)c13)COC2	6%
COc1cccc2cc(-c3nc(Nc4cccc(C)c4)sc3C)c(=O)oc12	16%
COC(=O)c1ccccc1NC(=O)CSc1nnnn1CC(=O)O	1%
O=C(NCCc1csc(-c2cccc(F)c2)n1)c1ccccc1C(F)(F)F	7%
O=C(CSc1nc2ccccc2s1)NC1CCCc2ccccc21 (stereo not drawn)	-6%

Pulled by structure from the list above, four records:
SMILES	VDR inh
Cc1ccc(CO)cc1Nc1ncnc2onc(-c3ccc(F)cc3)c12	3%
O=C(CSc1nc2ccccc2s1)NC1CCCc2ccccc21 (stereo not drawn)	-6%
COC(=O)c1ccccc1NC(=O)CSc1nnnn1CC(=O)O	1%
COc1cccc2cc(-c3nc(Nc4cccc(C)c4)sc3C)c(=O)oc12	16%

Part of the list above in order of heavy-atom count, highest first.
SMILES	VDR inh
CC(C)Cc1nc2oc3c(N4CCN(CCO)CC4)ncnc3c2c2c1CCCC2	10%
Cc1ccc(CO)cc1Nc1ncnc2onc(-c3ccc(F)cc3)c12	3%
CCOC(=O)CSc1nc2cc(OC)c(OC)cc2cc1C#N	-6%

Single entries from the entries so far.
For VDR inh, `O=C(Nc1nc2c(s1)CN(Cc1ccccc1)CC2)c1cccc(S(=O)(=O)N2CCc3ccccc32)c1` has 13%
For VDR inh, `CCOC(=O)CSc1nc2cc(OC)c(OC)cc2cc1C#N` has -6%
For VDR inh, `Cc1ccc(CO)cc1Nc1ncnc2onc(-c3ccc(F)cc3)c12` has 3%
For VDR inh, `CS(=O)(=O)N(CC(=O)N1CCN(c2cccc(Cl)c2)CC1)c1cccc(F)c1` has 6%
For VDR inh, `CC(C)Cc1nc2oc3c(N4CCN(CCO)CC4)ncnc3c2c2c1CCCC2` has 10%

(next part)
SMILES	VDR inh
Cc1c(OCC(=O)N[C@@H](CSCc2ccccc2)C(=O)O)ccc2c3c(c(=O)oc12)CCC3	-13%
CCOc1ccc(NC(=O)Nc2cnccn2)cc1	-16%
Cc1noc(C)c1C(=O)N1CCC(CO)(Cc2ccccc2)CC1	4%
O=C(O)c1ccc(/C=C2\COc3ccccc3C2=O)cc1	20µM*
CC(=O)c1ccc(NC(=O)c2cnn(-c3cccc(F)c3)c2-n2cccc2)cc1	0%
COC(=O)c1sccc1NC(=S)Nc1ccc(C)cc1	-22%
CCOC(=O)c1ccc(NC(=O)C2CCCN(c3ncnc4onc(-c5ccc(F)cc5)c34)C2)cc1 (stereo not drawn)	1%
COc1ccc(N2CCN(C(=O)c3ccc(SC)cc3OC)CC2)cc1	14%
COc1ccc(CCNC(=O)CC2SC(=NCc3ccccc3OC)NC2=O)cc1 (stereo not drawn)	9%
COc1ccc(CNC(=O)C2CCCN(C(=O)Nc3ccc(OC)cc3)C2)cc1 (stereo not drawn)	4%
COc1ccccc1NC(=O)CCSc1nc(C)cc(C)n1	-5%
COc1ccc(/C=C(\NC(=O)c2ccc(C)cc2)C(=O)NCCCn2ccnc2)cc1OC	-3%
Cc1cc(=O)oc2c(C)c(OCC(=O)c3ccccc3)ccc12	-26%
COc1ccc(NC(=O)CN(c2cc(C)cc(C)c2)S(=O)(=O)c2c(C)noc2C)cc1	1%
CC(=O)N1CCCc2cc(S(=O)(=O)N3CCC(C(=O)NC4CCCCC4)CC3)ccc21	-6%
CC(C)CNC(=O)c1ccccc1NC(=O)c1ccccc1N(C)S(C)(=O)=O	8%
COc1ccc(/C=C/c2c(-c3ccc(OC)cc3)oc3ccc(-c4ccc(OC)cc4)cc23)cc1	0%
CSc1c(-c2ccccn2)c(N)nn1C(=O)C1CCC1	-7%
